HIV TAR-Tat – HIV-1 TAR-Tat binding disruption. HIV-1 TAR RNA, Tat peptide displacement FRET; stronger effect = higher value. z-score (concentration not given with the values). 0.6% of 100,000 active. AID 1259389;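 also: score is relative to mean and SD of negative controls; some compounds called inactive have numbers as strong as hits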
CDC25B CDK2 inh – human CDC25B-CDK2/CyclinA binding inhibition; AID 1259370; 0.72% of 94,000 active; HTRF CDC25B-CDK2/CyclinA binding, anti-His/anti-Flag; stronger effect = higher value; P30305+P24941; z-score (no concentration beside the values);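 also: score is relative to mean and SD of negative controls; strong numbers were not always called active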
* hit, by the source's call; x = not tested or not shown.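 The calls were made as follows: active = z-score from 3 up in half or more of its runs; inactive = the rest.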

SMILES	HIV TAR-Tat	CDC25B CDK2 inh
Cc1nnc(N2CCN(C(=O)Nc3ccc(F)cc3F)CC2)c2nn(-c3ccc(Cl)cc3)c(C)c12	0.73	x
Cc1ccc(-c2nc(CS(=O)(=O)CC(=O)NC3CC3)c(C)o2)cc1	0.42	0.73
O=C1CC(c2ccccc2)CN1Cc1ccccc1 (centres undefined)	x	-0.41
CCOc1ccc(C2C(C(=O)OC3CCCCC3)=C(C)NC3=C2C(=O)CCC3)cc1OC (centres undefined)	-0.64	-1.6
COc1cccc(CNc2nc3c(S(=O)(=O)c4ccc(F)cc4)nnn3c3ccccc23)c1	-1.5	-0.65
Cc1ccc(C)c(NS(=O)(=O)c2ccc3c(c2)NC(=O)C(C)CS3)c1 (centres undefined)	0.99	x
O=C(NC(c1nnc(-c2ccccc2)o1)c1ccccc1F)c1ccccc1Br (centres undefined)	0.92	x
CCc1ccc(-c2cc(C)no2)cc1S(=O)(=O)Nc1ccc(S(N)(=O)=O)cc1	1.1	x
COc1cccc(-c2noc(N3CCN(c4ccccc4)CC3)n2)c1OC	0.11	x
NC(=O)c1nc(-c2ccccc2Cl)nc2c1[nH]c(=O)n2-c1ccc(Cl)cc1	0.99	x
CCc1nc(SCC(=O)NCC2CCCO2)c2c(=O)n(C)c(=O)n(C)c2n1 (centres undefined)	-0.21	x
Cc1cc(NS(=O)(=O)c2ccc3c(c2)CC(C)N3C(=O)C2CC2)ccc1Br (centres undefined)	-0.22	x
COc1ccc(C(=O)CN2C3=NCCCN3c3ccccc32)cc1	2.9	-0.97
O=S1(=O)N=CNc2ccc(S(=O)(=O)N3CCN(c4cccc(Cl)c4)CC3)cc21	-0.02	x
O=S(=O)(c1cccc2nsnc12)N1CCCC1c1ccccc1F (centres undefined)	0.34	-2.1
Cc1cc(C)c(-c2c(NCCc3cccs3)c(=O)c2=O)cc1C	1.9	x
O=c1c2cnn(-c3ccccc3)c2nc(Cc2ccccc2)n1-c1cccc2ccccc12	x	-2.3
O=C(Cn1ncn2nc(-c3cccs3)cc2c1=O)NC1CCCC1	-1.4	-1.1
CC12CN(Cc3ccccc3)CC(C)(CN(Cc3ccccc3)C1)C2=O	x	-1.5
CNC(=O)C1=Cc2cc(Br)ccc2OC1	0.08	x

Given field by field: entries from further up
> COc1ccc(C(=O)CN2C3=NCCCN3c3ccccc32)cc1
  HIV TAR-Tat = 2.9; CDC25B CDK2 inh = -0.97
> O=S1(=O)N=CNc2ccc(S(=O)(=O)N3CCN(c4cccc(Cl)c4)CC3)cc21
  HIV TAR-Tat = -0.02; CDC25B CDK2 inh = x
> O=S(=O)(c1cccc2nsnc12)N1CCCC1c1ccccc1F (centres undefined)
  HIV TAR-Tat = 0.34; CDC25B CDK2 inh = -2.1
> Cc1cc(C)c(-c2c(NCCc3cccs3)c(=O)c2=O)cc1C
  HIV TAR-Tat = 1.9; CDC25B CDK2 inh = x

The list continues.
SMILES	HIV TAR-Tat	CDC25B CDK2 inh
Cc1ccc(C)c(Nc2c(-c3cccs3)nc3ncccn23)c1	0.82	0.15
O=C1c2ccccc2C(=O)N1c1ccc(N2C(=O)C3C4CCC(C4)C3C2=O)cc1 (centres undefined)	x	-0.11
COC(=O)c1c2n(c3ccccc3c1=O)CCCS2	1.5	-1.3
CC1CCc2c(sc(NC(=O)CSc3nnc4ccccn34)c2C#N)C1 (centres undefined)	x	-1.6
COc1cc(C(=O)O[C@@H]2CC3CC[C@]2(C)C3(C)C)ccc1O	1.5	x
CCOc1ccc(S(N)(=O)=O)cc1-c1nc2c(C(C)(C)C)nn(C)c2c(=O)[nH]1	x	1.5
Cn1c(C(=O)N2CCN(c3ccccc3F)CC2)cc2c(=O)[nH]c3ccccc3c21	0.1	5.9
Cc1nnc2c3ccccc3nc(NCc3cccnc3)n12	1.9	x
Cc1ccc(N2C(=O)c3ccccc3C2Nc2c(C)cccc2C)nc1 (centres undefined)	0.01	-0.17
COC(=O)C1=C(C)NC2=C(C(=O)CC(C)(C)C2)C1c1cccc(Cl)c1 (centres undefined)	0.36	-2.1
O=C1COc2cc(S(=O)(=O)Nc3cccc(Br)c3)c(Cl)cc2N1	-2.9	x
CSc1nc(SCC(N)=O)c2c3c(sc2n1)COC(C)(C)C3	-1.6	-17
CCOC(=O)c1c(C)[nH]c(C)c1S(=O)(=O)N(CC)CC	1.2	x
CCCn1nc(-n2cnnc2)c(NS(=O)(=O)c2ccc(OC)c(OC)c2)c1C	-0.39	-1.4
CSc1sc(-c2nc(C)cs2)c(C)c1-c1ccn(S(C)(=O)=O)n1	x	-2.2
CCOC(=O)c1cn(-c2ccc(N3CCC(C)CC3)nn2)nc1N	x	-3
CCCCc1nn2c(=O)cc(CSc3n[nH]c(-c4ccc(C)cc4)n3)nc2s1	-1.3	x
Cc1ccc(-c2csc3ncn(CCCN(C)C)c(=O)c23)cc1	-0.32	-0.09
O=C1c2ccccc2C(=O)C1(c1ccccc1)N1CCN(c2ccccn2)CC1	-0.23	-1.1
O=C(O)c1cc2ccc3cccnc3c2[nH]1	-0.03	-1.4
Nc1ccc(-c2nc(-c3ccccc3)nc3ccccc23)cc1	1.1	-0.18
CCCCN1CNC(=S)N(CC)C1	x	-1.2
CC(C)(C)c1ccc(CSCC(=O)Nc2ccccc2C#N)cc1	x	-1.4
CC(C)(C)NC(=O)[C@@H]1CN(Cc2cccnc2)CCN1C[C@@H](O)C[C@@H](Cc1ccccc1)C(=O)N[C@H]1c2ccccc2C[C@H]1O	0.41	x
O=C(NCc1csc(-c2cccs2)n1)[C@H]1CSCN1C(=O)c1cccc(Br)c1	2	x
CC(C)CC(C1=C(O)CCCC1=O)C1=C(O)CCCC1=O	0.88	-0.46
O=C(NCc1ccco1)C1CCCN(c2nnc(N3CCCCC3=O)s2)C1 (centres undefined)	1.2	x
CCCn1c(=O)c2sccc2n2c(CCCC(=O)N(C)Cc3ccco3)nnc12	-1.3	x
COc1ccc2[nH]c3c(=O)n(CCCC(=O)N4CCCC4)c(=S)[nH]c3c2c1	x	-1.4
Cn1c(=O)c2c(SCC(=O)N3CCCC3)nc(C3CC3)nc2n(C)c1=O	0.83	x

Quoted from the listing:
CDC25B CDK2 inh result of CCCCN1CNC(=S)N(CC)C1 = -1.2
CDC25B CDK2 inh result of COc1ccc2[nH]c3c(=O)n(CCCC(=O)N4CCCC4)c(=S)[nH]c3c2c1 = -1.4

Further structures.
SMILES	HIV TAR-Tat	CDC25B CDK2 inh
Cc1ccc(/C(O)=C2\C(=O)C(=O)N(CCCN(C)C)C2c2ccc(C)cc2)cc1 (centres undefined)	0.37	-1.1
CCc1cc2c(cc3c(=O)n(CC(=O)NCCCN4CCCCCC4)ncn32)s1	x	-0.71
Cc1cc(C)c2c(-n3cccc3)c(C(=O)NC3CCC(C)CC3)sc2n1 (centres undefined)	-0.05	-0.84
CCOC(=O)c1c(C)n(C)c2c1cc(OC(=O)COc1ccccc1)c1ccccc12	x	-0.32
CCOCC(=O)Nc1nnc2n1CCCS2	0.28	x
Cc1cc(C)c(C#N)c(Nc2cccc(Br)c2)n1	0.44	-0.38
CC(C)(C)c1ccc(C2c3c(oc4ccc(Cl)cc4c3=O)C(=O)N2CCCn2ccnc2)cc1 (centres undefined)	0.62	-3.4
CC(=O)N1c2ccc(S(=O)(=O)N(C)CC(=O)Nc3nccs3)cc2CC1C (centres undefined)	0.01	x
Cc1cc(NC(=O)CSc2ncc(C(=O)Nc3ccc(Cl)cc3)c(=O)n2C)no1	0.19	x
Cn1c(=O)c2c(nc(CN3CCN(Cc4ccccc4)CC3)n2Cc2cccc(Cl)c2)n(C)c1=O	1.3	-1
CC(=O)N1CCCc2cc(S(=O)(=O)N3CCCC(C(=O)NC(C)C)C3)ccc21 (centres undefined)	1.4	x
CCOc1nc(-c2ccccc2)ccc1-c1noc(-c2cc(OC)cc(OC)c2)n1	1.1	3.7
O=c1ccc(-c2ccc(S(=O)(=O)N3CCCCC3)o2)n[nH]1	-0.67	x
Cc1ccc(-n2nnc(-c3nc(-c4cccs4)no3)c2N)cc1	1	x
CC(=O)Nc1ccc(Br)cc1C(=O)Nc1cc(C(F)(F)F)cc(C(F)(F)F)c1	x	-3.4
CS(=O)(=O)c1ccc2nc(NC(=O)Nc3ccc4c(c3)OCCO4)sc2c1	2	-0.1
Clc1cccc(-n2ncc3c(NCCCN4CCOCC4)ncnc32)c1	1.9	x
O=C(C1CCC(CNS(=O)(=O)c2cccc3nsnc23)CC1)N1CCn2c1nc1ccccc12 (centres undefined)	1.8	-1.6
CC(CCc1ccccc1)NC(=O)CSc1nc(-c2ccccc2)nc2cc(=O)[nH]n12 (centres undefined)	-0.36	x
CC(Sc1nc2c(c(=O)[nH]1)CCCC2)C(=O)Nc1ccccc1 (centres undefined)	1.4	0.07
CCN(CC)c1nn2c(=O)c(C(=O)NC3CCCCC3)cnc2s1	0.59	x
CCNS(=O)(=O)c1ccc2[nH]c(=O)ccc2c1	0.87	x
Cc1scc(CN(Cc2ccccc2)C(C)C)c1C	1.6	x
COc1cccc(S(=O)(=O)c2c[nH]c3cc(F)ccc3c2=O)c1	1	0.12
Clc1cccc(Cn2c(-c3cncs3)nc3ccccc32)c1	2.3	-0.6
Cc1nn2c(NCc3ccccn3)cc(C(C)(C)C)nc2c1-c1ccc(F)cc1	0.88	-2
Oc1ccc(NC(c2nnc(-c3ccccc3)o2)c2ccc(F)cc2Cl)cc1 (centres undefined)	0.74	x
OCCCNCC(O)Cn1c2ccccc2c2ccccc21 (centres undefined)	-0.53	-0.44
CSc1ncc(Nc2nc(C)cs2)cn1	2	-1.6
COc1ccccc1N1C(=O)c2cccnc2C1=O	1	-1.8
CCOCCCNC(=O)c1c(O)nc2ccccn2c1=O	-0.55	-1.8
CC1Cn2cc(C(=O)NC(C)(C)C)c(=O)c3c(Cl)ccc(c32)O1 (centres undefined)	0.44	x
Cc1ccc(N2C(=O)CN(Cc3cccs3)C2=S)c(C)c1	x	-0.3
CC1c2cccn2CCN1C(=O)Nc1ccccc1F (centres undefined)	-3.8	x
CCc1ccc(-c2nnc(-c3ccc(Cl)cc3)o2)cc1	-0.06	-0.29
CN1C(=O)c2cccc3c(N4CCOCC4)ccc(c23)C1=O	-4.7	-0.78
CCc1nn(CCCC(=O)NC2CCCC2)c(=O)c2cc3oc(C)cc3n12	0.92	0.34
Cc1cc(C)c2c(=O)c3c(oc2c1)C(=O)N(Cc1ccco1)C3c1ccc(F)cc1 (centres undefined)	1.6	-2.6
O=S(=O)(Nc1ccccc1F)c1ccc(-c2cnc(C3CC3)o2)cc1	0.78	x
CCOc1ccc(S(=O)(=O)[C@H]2CS(=O)(=O)C[C@@H]2N2CCN(c3cccc(Cl)c3)CC2)cc1	0.28	-2.5
COC(=O)c1sc2ccccc2c1S(=O)(=O)Nc1cc(Cl)c(OC)cc1OC	0.59	x
O=c1c2c(nc3nc(-c4ccco4)[nH]n13)CCC2	1.4	2.6
N#Cc1c(F)cccc1NCCCn1ccnc1	x	0.3
Cc1ccc(S(=O)(=O)c2nc(S(=O)(=O)c3ccc(C)cc3)c(N3CCC(O)CC3)s2)cc1	-1.1	-0.5
Cc1ccc(-c2noc(CN(C(=O)CC(C)(C)C)C(C)C)n2)cc1	0.75	-2
Cc1ccccc1-n1c(C)nc2ccccc21	0.28	-1.8
CCOC(=O)c1sc2ccccc2c1S(=O)(=O)Nc1ccc(OCC)cc1	0.68	x
Cn1c2c(c(=O)n(C)c1=O)C(NC(=O)c1ccco1)(C(F)(F)F)C(=O)N2 (centres undefined)	x	-2.1
Cc1ccc(C(=O)N2CCCCC2C(=O)O)o1 (centres undefined)	-0.18	-1.2
O=C(NCc1ccc(F)cc1)NCc1cccn1Cc1ccc(F)cc1	0.17	x

Complete entries, quoted from the list:
Entry for CCc1ccc(-c2cc(C)no2)cc1S(=O)(=O)Nc1ccc(S(N)(=O)=O)cc1 : HIV TAR-Tat: 1.1; CDC25B CDK2 inh: x
Entry for CC(C)CC(C1=C(O)CCCC1=O)C1=C(O)CCCC1=O : HIV TAR-Tat: 0.88; CDC25B CDK2 inh: -0.46

Next entries follow:
SMILES	HIV TAR-Tat	CDC25B CDK2 inh
O=S(=O)(c1cc(Cl)c(Cl)cc1Cl)N1CCN(Cc2ccccc2)CC1	x	-1.6
O=C(Nc1ccc2snnc2c1)N1CCSCC1	x	-2
Cc1cc2c(cc1C)NC(c1c(F)cccc1F)C1=C(CC(C)(C)CC1=O)N2 (centres undefined)	0.45	-0.42
Cc1nc(SCC(=O)OCN2C(=O)c3ccccc3C2=O)n[nH]1	x	1.9
c1ccc(-c2cc3ncnc(NCc4ccc5c(c4)OCO5)c3s2)cc1	x	-1.3
N#C/C(=C\N1CCc2ccccc21)C(=O)c1ccccc1	x	-0.93
Oc1cc2c(cc1O)CN(C(=S)NCCc1ccc(Cl)cc1)CCC2	x	-3.4
Cc1c(C(=O)OCCOc2ccccc2)sc(=S)n1C	0.43	-0.93
CN(C)CC/C=C1\c2ccccc2Sc2ccc(Cl)cc21	1.5	x
Cc1ccc(-c2onc(C)c2C)cc1S(=O)(=O)N1CCCC1	1.2	x
Cc1ccc(S(C)(=O)=O)cc1	x	-0.29
CCOC(=O)CC(=O)c1sc(SC)nc1N	x	-1.5
O=C(CC1CC2CCC1C2)Nc1ccc(N2CCOCC2)c(Cl)c1 (centres undefined)	0.95	x
N#Cc1cc2c(nc1SCC(=O)Nc1cccc(Cl)c1)CCCC2=O	0.81	-3.3
O/N=C(\c1ccccc1)c1ccc(Cl)cc1	x	-2.1
NC(=O)C1CCN(C(=O)c2ccc(N3CCOc4ccc(Cl)cc43)s2)CC1	-0.01	x
Cc1ccccc1-n1c(SCc2cc(=O)n3cc(Br)ccc3n2)nc2[nH]ncc2c1=O	1.2	x
Sc1oc(-c2ccccc2)cc1C=Nc1ccccc1Cl	-2.7	6.6

Screens from PubChem.
